RE007 growth inh = qHTS Assay for Inhibitors of the HIV-1 protein Vpr | S. pombe RE007 Vpr strain, BacTiter-Glo ATP luminescence, 24 h; control for the full effect not named in the record | 0.21% of 360,000 active | AID 651644, 2012 | Potency, µM (doses to about 92.2 µM), without a hit: at the top dose activity change, negative = less growth; active = well fitted falling curve with a large enough effect; inconclusive = small, poorly fitted or top-dose-only effect; inactive = no such curve, though single readings can be large or run the other way;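 note: % is set by controls: 0 for no effect and ±100 for the full control effect; nearly all actives have a fitted effect of over 50% in size; the assay follows cell death caused by Vpr and the record does not say whether a fall means rescue or toxicity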
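Fission yeast strain RE007, carrying one chromosomally integrated HIV-1 vpr copy, was seeded at OD 0.01 in PMG+AL medium with 23 nL pinned compound. After 24 h at 30 °C and 99% humidity, viability was read by BacTiter-Glo luminescence.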
SARS PLpro yeast = qHTS of Yeast-based Assay for SARS-CoV PLP; S. cerevisiae expressing SARS-CoV PLpro, growth rescue; control for the full effect not named in the record; Potency, µM (top dose mostly 32.9 µM), for inactives: at the top dose activity, positive = growth rescue; 0.19% of 330,000 active; AID 485353, 2010; note: 0% is about no effect; nearly all actives have a fitted effect of over 55% in size; growth read by luminescence after 48 h
MARV entry inh = qHTS for inhibitors of binding or entry into cells for Marburg Virus. Marburg virus pseudotyped entry inhibition, cell reporter; control for the full effect not named in the record; about a third of the inactives were read at about 46 µM. Potency, µM (doses to about 37.8 µM), without a hit: top-dose activity change, negative = inhibition, most hits filed as inhibitors. 1.8% of 300,000 active; active = well fitted inhibition curve with a large enough effect; inconclusive = small, poorly fitted or top-dose-only effect, or effect the other way; inactive = flat fitted curve, though single readings scatter; tested in HEK293 cells; about a fifth of its hits are not listed in these tables; note: % is set by controls: 0 for no effect and ±100 for the full control effect; luciferase read-out
Cruzain Triton = qHTS Assay for Promiscuous and Specific Inhibitors of Cruzain (with detergent); 0.43% of 200,000 active; purified cruzain, Z-FR-AMC fluorescence, 0.01% Triton; Cruzipain (Trypanosoma cruzi), P25779; Potency, µM, without a hit: max response, negative = inhibition, actives largely listed as inhibitors; AID 1478, 2009; active = well fitted curve in the direction sought with a large enough effect; inconclusive = small, poorly fitted or top-dose-only effect, or another doubt; inactive = no such curve, though single readings can be large; an effect the other way counts as inactive or inconclusive;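 note: plate controls were neutral wells for no effect and buffer without enzyme for full effect; nearly all actives have a fitted effect of over 40% in size; top concentration of the series not given in the record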
Target sequence (P25779 123-467 limits assumed): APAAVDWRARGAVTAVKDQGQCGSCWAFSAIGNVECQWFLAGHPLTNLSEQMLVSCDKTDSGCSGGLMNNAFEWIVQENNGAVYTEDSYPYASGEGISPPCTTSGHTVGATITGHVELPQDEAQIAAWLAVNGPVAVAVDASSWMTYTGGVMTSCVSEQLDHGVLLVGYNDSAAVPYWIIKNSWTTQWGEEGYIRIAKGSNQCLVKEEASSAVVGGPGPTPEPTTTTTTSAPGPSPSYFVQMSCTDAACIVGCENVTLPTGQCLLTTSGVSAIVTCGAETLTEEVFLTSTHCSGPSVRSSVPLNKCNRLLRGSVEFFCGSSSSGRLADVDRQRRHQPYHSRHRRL
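Compounds were screened in titration against cruzain (1.5 nM) with 0.01% Triton X-100 to counter colloidal aggregation. Activity was the AMC fluorescence increase over 60 s after adding 2 uM Z-FR-AMC at pH 5.5.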
Cruzain inh noDet = qHTS Assay for Promiscuous and Specific Inhibitors of Cruzain (without detergent); Cruzipain (Trypanosoma cruzi), P25779; purified cruzain, Z-FR-AMC fluorescence, no detergent; 2.3% of 200,000 active; Potency, µM, inactives show max response, negative = inhibition, actives largely listed as inhibitors; active = well fitted curve in the direction sought with a large enough effect; inconclusive = small, poorly fitted or top-dose-only effect, or another doubt; inactive = no such curve, though single readings can be large; an effect the other way counts as inactive or inconclusive;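 note: plate controls were enzyme without inhibitor for no effect and buffer without enzyme for full effect; nearly all actives have a fitted effect of over 40% in size; top concentration of the series not given in the record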
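Purified cruzain at 1.5 nM, pre-incubated 15 min with compound at room temperature in 100 mM sodium acetate pH 5.5, 5 mM DTT, 0.00005% Triton X-100. Reaction started with 2 uM Z-FR-AMC; AMC fluorescence increase over 60 s gives rate.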
NS1 inh = qHTS Assay for Inhibitors of Influenza NS1 Protein Function; S. cerevisiae slowed by influenza A NS1, growth recovery by OD600; Potency, µM (series often up to 46.1 µM), without a hit: top-dose activity, positive = more growth; 0.4% of 270,000 active; note: actives are rising curves; nearly all actives have a fitted effect of over 50% in size
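Compounds were scored for reversing the slow growth caused by influenza A NS1 in S. cerevisiae, measured by optical density at 600 nm. Assay medium contained 2% galactose at pH 6.0; NS1-free yeast of the same strain were the positive control.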
2A StopGo = High Throughput Screening for Foot and Mouth Disease Virus Antivirals; AID 1159524, 2015; Potency, µM (titrated, usually from 57.9 µM), for inactives: top-dose signal change, negative = less light; 1.2% of 410,000 active; human cells with a luciferase reporter of 2A StopGo recoding; control for the full effect not named in the record; active = well fitted falling curve with a large enough effect; inconclusive = small, poorly fitted or top-dose-only effect; inactive = no such curve, though single readings can be large or run the other way; tested in HEK293T cells; note: % is set by controls: 0 for no effect and ±100 for the full control effect; nearly all actives have a fitted effect of over 45% in size; luciferase light after 4 h
Lassa entry inh = qHTS for Inhibitors of binding or entry into cells for Lassa Virus | Lassa virus pseudotype entry inhibition, cell reporter; control for the full effect not named in the record | Potency, µM (top dose mostly 37.9 µM), without a hit: at the top dose activity change, negative = inhibition, actives largely listed as inhibitors | 1.2% of 300,000 active; active means well fitted inhibition curve with a large enough effect; inconclusive means small, poorly fitted or top-dose-only effect, or effect the other way; inactive means flat fitted curve, though single readings scatter; tested in HEK293 cells; note: % is set by controls: 0 for no effect and ±100 for the full control effect; nearly all actives have a fitted effect of over 50% in size; luciferase read-out
* = called active by the depositor; ? = inconclusive; · = not tested or not shown; & = joins results of further samples; [ ] = another dose, or the depositor's remark. Unless noted, calls come from the whole dose curve; as a rule, active means well fitted rising curve with a large enough effect; inconclusive means small, poorly fitted or top-dose-only effect; inactive means no such curve, though single readings can be large or run the other way. Potency is the fitted concentration of half-maximal effect.

SMILES | RE007 growth inh | SARS PLpro yeast | MARV entry inh | Cruzain Triton | Cruzain inh noDet | NS1 inh | 2A StopGo | Lassa entry inh
N#C/C(=C(/O)Cc1ccccc1)P(=O)(c1ccccc1)c1ccccc1 | 6% | 0% | 2%[46.1 µM] | · | · | 3% | 27% | -4%[46.1 µM]
COCCC1CCCCN1C(=O)c1ccc(OC2CCN(C(C)=O)CC2)c(OC)c1 (stereo not drawn) | 5% | 2% | · | · | · | 1% | -3% | ·
CCCn1c(=N)c(C(=O)NCc2cccnc2)cc2c(=O)n3cccc(C)c3nc21 | · | · | -19%[46.1 µM] | -1.9% | 3% | · | -18% | ?
Cc1ccc(SCCc2ccc(C)nc2)cc1 | -1% | -8% | 7% | -1.8% | -4% | -8% | 30%[activator] | -4%
O=C(Nn1c(-c2ccncc2)nc2ccccc2c1=O)c1ccc([N+](=O)[O-])cc1Cl | -4% | -3% | 7%[46.1 µM] | · | · | · | 0% | -3%[46.1 µM]
CCOc1ccc(NC(=O)CCNc2c(N3CCCC3)c(=O)c2=O)cc1 | 75% | 3% | ? | 0.0% | 7% | 2% | -7% | 0%
CCN(CC)S(=O)(=O)c1cccc(C(=O)NCC(=O)OCC(=O)NCc2ccccc2)c1 | 1% | 1% | -5% | 0.8% | 20% | -5% | -4% | 12%
CCCNC(=S)NC1CC2CCCC(C1)N2CC(C)C (stereo not drawn) | 2% | 16% | ? | 4.5% | -16% | 6% | · | ?
NC(=O)c1c(N)sc2c1CCCCC2 | -8% | -1% | ? | -21% | 25µM* | -31% | -10% | 24%
Cc1ccc(-n2c(O)c(C=NCCC3=CCCCC3)c(=O)[nH]c2=O)cc1 | 30% | -4% | ? | · | · | · | -6% | -20%
COc1cc2c(cc1OC)C(C1c3cc4c(cc3CCN1C)OCO4)OC2=O (stereo not drawn) | 0% | 3% | · | · | · | -1% | -2% | ·
Cc1cc(C(=O)NCc2nc(-c3ccccc3)no2)ccc1[N+](=O)[O-] | 12% | -1% | 20% | · | · | · | -16% | -1%
COc1ccc(NC(=O)CSc2ccc(-c3sc(C)nc3C)nn2)cc1 | -2% | 0% | 4% | · | · | -3% | ? | ?
CCOC1(OCC)N=C(N)C2(C#N)C(c3cccc(OC)c3OC)C12C#N (stereo not drawn) | 0% | 1% | 6% | -1.4% | -1% | ? | -12% | -2%
Cc1cccc(-n2ncc3c(NC(C)C)ncnc32)c1 | 1% | -14% | -1% | 1.3% | -5% | -73% | -10% | ·
Cc1ccc(S(=O)(=O)C(CNC(=O)c2ccc(F)c(F)c2)c2ccco2)cc1 (stereo not drawn) | · | · | · | -3.1% | -13% | · | 4% | -26%[46.1 µM]
O=c1[nH]ncc(NCc2ccc(Cl)cc2)c1Cl | -8% | 0% | ? | · | · | 5% | 8% | 10%
O=[N+]([O-])c1cc(S(=O)(=O)CCCN2CCOCC2)ccc1F | -10% | 24% | 6% | · | · | -2% | 11% | ?
O=C(c1cnc(Cl)c(Cl)c1)N1CCN(S(=O)(=O)c2ccc(F)cc2)CC1 | 80% | -1% | 22%[46.1 µM] | · | · | -3% | -23% | 20%
O=C(Nc1ccccc1)NC1(C(=O)N2CCC(O)CC2)CCCCC1 | 11% | 3% | ? | · | · | 5% | -1% | 14%
COc1ccccc1-n1c(=O)c2c3c(sc2n2c(=S)[nH]nc12)CCC3 | -5% | -2% | 20%[46.1 µM] | · | · | 11% | 11% | -7%
O=C(O)CC(NC(=O)c1cccc([N+](=O)[O-])c1)c1ccc2c(c1)OCO2 (stereo not drawn) | 10% | 1% | 6%[46.1 µM] | · | · | · | -17% | -24%
COc1cc(C(=O)CSc2nccn2C)cc(OC)c1OC | -7% | -1% | 6%[46.1 µM] | · | · | 5% | 17% | 2%
Cc1c(C(=O)NCCN2C(=O)S/C(=C\c3cccnc3)C2=O)cccc1[N+](=O)[O-] | -11% | 1% | · | · | · | 2% | ? | ·
CCN(CC)S(=O)(=O)c1ccc2oc(C(=O)NCc3ccc(C)cc3)c(C)c2c1 | -3% | 2% | ? | -1.7% | -8% | 0% | · | ?
(listing goes on)
SMILES | RE007 growth inh | SARS PLpro yeast | MARV entry inh | Cruzain Triton | Cruzain inh noDet | NS1 inh | 2A StopGo | Lassa entry inh
Cc1ccc(-c2nnc(SCC(=O)N(CC(C)C)c3c(N)n(Cc4ccccc4)c(=O)[nH]c3=O)n2N)cc1 | -10% | 2% | 11% | · | · | 2% | -8% | 11%
COc1ccc(CN(C)CC(=O)Nc2ccc(Cl)cc2F)c(OC)c1 | -7% | 0% | · | · | · | -4% | ? | ·
COc1cc(NC(=O)CN2CCC(Cc3ccccc3)CC2)c(C)cc1[N+](=O)[O-] | -13% | -15% | ? | -4.2% | 1% | 4% | 0% | 3%
CCC(Cn1nnc2ccccc2c1=O)NC(=O)Nc1cccc(Cl)c1 (stereo not drawn) | · | · | ? | -4.6% | -9% | · | 4% | 20%[46.1 µM]
O=C1Nc2ccc([N+](=O)[O-])cc2OC1CCN1CCN(Cc2ccc3c(c2)OCO3)CC1 (stereo not drawn) | -11% | 0% | -17%[46.1 µM] | · | · | 9% | ? | -3%
O=C(Cc1ccc(Br)cc1)c1ccc(O)cc1O | ? | -39% | 9% | -9.2% | -6% | -239% | 36% | ?
O=C(NC1CCCCC1)C(c1ccc(O)cc1)N(CC1CCCO1)C(=O)C1COc2ccccc2O1 (stereo not drawn) | 2% | 0% | -28% | -3.9% | 13% | 3% | 3% | ?
CCOC(=O)c1ccc(NC(=O)Cn2nc3c4ccccc4n(Cc4cccc(F)c4)cc-3c2=O)cc1 | · | · | · | 0.2% | 1% | · | -11% | 0%[46.1 µM]
COc1ccc(OC)c(S(=O)(=O)N2CCC(C(=O)NCc3ccccc3OC)CC2)c1 | 16% | 6% | 0%&0% | 3.2% | ? | 11% | -10% | 5%
O=C(CCc1ccccc1)NC(NC(=S)Nc1cccc(Cl)c1)C(Cl)(Cl)Cl (stereo not drawn) | 67% | 6% | -22% | -0.9% | 7.9µM* | 1% | · | -14%
CCOC(=O)c1cc(S(=O)(=O)Nc2c(C)cc(C)cc2C)[nH]n1 | · | · | · | -3.2% | 2% | · | -2% | 18%[46.1 µM]
O=C(Nc1ccc(F)c(F)c1)C1CCCN1S(=O)(=O)c1ccc(F)cc1 (stereo not drawn) | 20% | -2% | · | · | · | 6% | -19% | ·
CC(C)C(NC(=O)c1ccc(C(C)(C)C)cc1)C(=O)NC1=NCCS1 (stereo not drawn) | ? | -44% | 0% | 3.8% | 3% | -13% | -13% | -8%
Cc1ccc(NC(=O)c2c(C)nc3ccccn23)cc1C | -1% | -3% | ? | · | · | · | 16% | 21%[46.1 µM]
COc1ccc(-n2nc3cc(C)c(NC(=O)C(C)C)cc3n2)cc1 | · | -2% | 0% | 1.1% | -27% | 1% | · | ·
COC(=O)c1[nH]c2ccccc2c1NC(=O)CN1CCN(C/C=C/c2ccccc2)CC1 | -8% | 3% | 18µM* | -1.4% | -6% | -1% | · | ?
CCN1CCCC1CNC(=O)c1ccc(N2CCCC2=O)cc1 (stereo not drawn) | 7% | 7% | 4%[46.1 µM] | 2.3% | 0% | 0% | 23% | ?
c1ccc(-c2nc(NCc3ccco3)c3oc4ccccc4c3n2)cc1 | -16% | -30% | 1% | 0.5% | -23% | -99% | 1% | 4%
Cc1cc(NC(=O)c2cccc(Br)c2)no1 | -2% | · | ? | · | · | · | 40%[activator] | 29%
Cn1c(SCC(=O)N2CCOCC2)nnc1-c1ccc2ncccc2c1 | 9% | -1% | ? | · | · | 5% | 8% | 2%[46.1 µM]
CC1Cc2cc(C3(O)C(=O)c4ccccc4C3=O)ccc2N1 (stereo not drawn) | 2% | 5% | 13% | 2.0% | -9% | ? | · | 0%
CCNNC(=O)C(O)(Cc1ccccc1)Cc1ccccc1 | 1% | 0% | -4%[46.1 µM] | · | · | 4% | 1% | 0%[46.1 µM]
CN(CCOc1ccccc1)Cc1nc2cc(Cl)ccc2c(=O)[nH]1 | -7% | 0% | 3%[46.1 µM] | · | · | · | -17% | ?
COc1ccc(C(=O)Nc2nc(C)cc(C)n2)cc1[N+](=O)[O-] | 57% | -10% | -8% | 0.8% | 5% | 7% | -10% | 2%
Cc1ccccc1Nc1sc(C(=O)c2ccccc2)c(N)c1C(=O)NCc1ccc(Cl)cc1 | · | · | · | -2.4% | 5µM* | · | ? | -21%[46.1 µM]
O=C(NC1CCCCCCC1)c1cccc(S(=O)(=O)N2CCOCC2)c1 | -17% | 2% | 19% | · | · | · | 19% | -18%

Results in RE007 growth inh, SARS PLpro yeast and MARV entry inh (three entries from above):
mol	RE007 growth inh	SARS PLpro yeast	MARV entry inh
O=c1[nH]ncc(NCc2ccc(Cl)cc2)c1Cl	-8%	0%	?
O=C(Nc1ccc(F)c(F)c1)C1CCCN1S(=O)(=O)c1ccc(F)cc1 (stereo not drawn)	20%	-2%	·
Cc1c(C(=O)NCCN2C(=O)S/C(=C\c3cccnc3)C2=O)cccc1[N+](=O)[O-]	-11%	1%	·

Quoted at random: 3 compounds from above
SMILES | RE007 growth inh | SARS PLpro yeast | MARV entry inh | Cruzain Triton | Cruzain inh noDet | NS1 inh | 2A StopGo | Lassa entry inh
COc1ccc(-n2nc3cc(C)c(NC(=O)C(C)C)cc3n2)cc1 | · | -2% | 0% | 1.1% | -27% | 1% | · | ·
O=C(NC1CCCCCCC1)c1cccc(S(=O)(=O)N2CCOCC2)c1 | -17% | 2% | 19% | · | · | · | 19% | -18%
CN(CCOc1ccccc1)Cc1nc2cc(Cl)ccc2c(=O)[nH]1 | -7% | 0% | 3%[46.1 µM] | · | · | · | -17% | ?

Screening data (PubChem BioAssay)
